Bioassay records (PubChem BioAssay)
miR-21 reporter: miR-21 reporter, rising signal | HeLa miR-21 FLuc reporter, luciferase, 48 h | Potency, µM (doses to about 38.3 µM), inactives show at the top dose reporter change, positive = more light | 340,000 tested, under 10 active; active = well fitted rising curve with a large enough effect; inconclusive = small, poorly fitted or top-dose-only effect; inactive = no such curve, though single readings can be large or run the other way;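 further: % of control where 0% means no effect; miR-21 action dims this reporter so a rising signal means less miR-21 action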
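Compounds were titrated across several concentrations (up to approximately 40 uM) and incubated 48 hours with HeLa miR-21-FLuc reporter cells (miR-21 target sequence downstream of FLuc, endogenous miR-21). Readout was firefly luciferase luminescence after lytic detection reagent.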
Rango dissoc inh: inhibition of RanGTP-driven Rango-importin beta dissociation. Biochemical FRET Rango-importin beta, RanGTP-induced dissociation. Potency, µM (titrated, usually from 46.1 µM), for the others: top-dose activity change, negative = inhibition. 340,000 tested, 0.071% active; active means falling FRET ratio curve, often poorly fitted, with flat reads before Ran was added; inconclusive means other falling curves, or compound fluorescence or quenching; inactive means flat or rising ratio curve;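 further: potency means the concentration at half of the fitted maximal effect; % of control where 0% means no effect; nearly all actives have a fitted effect of over 45% in size; -100% = wells without RanGTP and RCC1; the record marks most hits as doubtful in a second field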
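Quantitative HTS using a FRET biosensor: 0.1 uM Rango, 0.25 uM importin beta, 0.6 uM Ran, 2 mM GTP, 0.2 uM RCC1 final, PBS with DTT, Tween-20 and BSA. Post-read taken 45 min after Ran addition.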
GLA inh pH 4.5: inhibitors of human alpha-galactosidase A at pH 4.5. P06280. 230,000 tested, under 10 active. purified enzyme, 4-MU-alpha-Gal fluorescence, pH 4.5. activity change, negative = inhibition, % at 105 µM; inconclusive = small, poorly fitted or top-dose-only inhibition, or a rising curve; inactive = flat fitted curve, though single readings scatter; no compound was filed as active;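 further: 0% = full activity with enzyme and -100% = basal without enzyme; dose as in the result columns while the protocol names 77 µM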
Target sequence (P06280 whole entry, looked up): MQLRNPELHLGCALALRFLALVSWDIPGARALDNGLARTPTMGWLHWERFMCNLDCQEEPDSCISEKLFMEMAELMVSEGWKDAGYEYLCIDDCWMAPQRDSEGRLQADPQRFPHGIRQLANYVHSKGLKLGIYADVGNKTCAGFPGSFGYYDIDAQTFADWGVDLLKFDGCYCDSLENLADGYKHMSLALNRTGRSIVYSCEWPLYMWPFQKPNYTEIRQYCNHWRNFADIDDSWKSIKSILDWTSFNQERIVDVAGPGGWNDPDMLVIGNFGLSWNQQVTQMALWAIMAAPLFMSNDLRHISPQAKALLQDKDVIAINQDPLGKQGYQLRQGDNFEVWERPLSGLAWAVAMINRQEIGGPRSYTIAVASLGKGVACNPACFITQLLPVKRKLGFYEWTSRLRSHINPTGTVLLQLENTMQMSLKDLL
Rango-impB inh: prevents formation of the Rango-importin beta complex | Rango CFP/YFP FRET sensor + importin beta, 45 min | Q14974 | Potency, µM (doses to about 92.2 µM), without a hit: at the top dose inhibition of complex formation | AID 540263 | 340,000 tested, 0.031% active; active = rising FRET ratio curve, often small or poorly fitted; inconclusive = mostly compound fluorescence or quenching in the first reads; inactive = flat curves in all reads;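 further: potency means the concentration at half of the fitted maximal effect; 0% = DMSO wells and 100% = buffer wells lacking importin beta; nearly all actives have a fitted effect of over 15% in size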
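FRET biosensor (snurportin 1 IBB flanked by EYFP and cerulean), 50 nM, with compound 5 min, then 0.125 microM importin beta in PBS, 1 mM DTT, 0.02% Tween-20, 0.1% BSA. CFP/YFP ratio read after 45 min at room temperature; pre-read flags interference.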
An asterisk follows results filed as active; [ ] = dose if it differs, or a comment.

What do the screens show for `CCN1C2=C(C(=O)CCC2)C(c2ccc(O)c(Br)c2)C2=C1CCCC2=O`?
miR-21 reporter: -2%; Rango dissoc inh: inconclusive; GLA inh pH 4.5: 4; Rango-impB inh: inconclusive

How did Cc1ccccc1CN1CCc2c(OCC(=O)N3CCCc4ccccc43)cccc2C1=O do in these assays?
miR-21 reporter: inconclusive; Rango dissoc inh: 1%; GLA inh pH 4.5: -6; Rango-impB inh: 4.2%

Results for Cc1cc(C)n2ncc(S(=O)(=O)c3ccccc3)c2n1 ?
miR-21 reporter: 3%; Rango dissoc inh: 14%; GLA inh pH 4.5: 10; Rango-impB inh: 1.7%

How did Cc1cc(C)n2nc(CC(=O)NC3CCCCCC3)nc2n1 do in these assays?
miR-21 reporter: 1%; Rango dissoc inh: 7%; GLA inh pH 4.5: -3; Rango-impB inh: 2.2%

How did Cc1ccc(NC(=O)CCCC(=O)O)c(Br)c1 do in these assays?
miR-21 reporter: -9%; Rango dissoc inh: 3%; GLA inh pH 4.5: -3; Rango-impB inh: 0.1%

What do the screens show for `CN1CCN(CCCNC(=O)c2ccc(NC(=O)C3=CSCCO3)cc2)CC1`?
miR-21 reporter: -9%; Rango dissoc inh: -1%; Rango-impB inh: -0.3%

Results for O=C(CN1CCN(C(=O)c2ccco2)CC1)Nc1ccc(F)cc1F ?
miR-21 reporter: -18%; Rango dissoc inh: 13%; Rango-impB inh: 5.6%

How did COc1cccc(CNC(=O)c2ccccc2N)c1 do in these assays?
miR-21 reporter: -15%; Rango dissoc inh: 12%; GLA inh pH 4.5: -3; Rango-impB inh: 0.4%

What do the screens show for `C/C(=N/NC(=O)CC(=O)N/N=C(\C)c1ccc([N+](=O)[O-])cc1)c1ccc([N+](=O)[O-])cc1`?
miR-21 reporter: 0%; Rango dissoc inh: inconclusive; GLA inh pH 4.5: 4; Rango-impB inh: -0.2%

What do the screens show for `Cc1cccc(NC(=O)/C(=C\c2ccc([N+](=O)[O-])o2)NC(=O)c2ccc(Cl)cc2)c1`?
miR-21 reporter: -20%; Rango dissoc inh: 9%; GLA inh pH 4.5: -13; Rango-impB inh: -1.6%

What do the screens show for `C[C@H]1[C@@H](c2ccccc2)Oc2ccc(Cl)cc2S(=O)(=O)N1Cc1ccc(F)cc1F`?
Rango dissoc inh: 14%; Rango-impB inh: 6.6%

How did C=CCNC(=S)N1CCC(C(=O)c2ccc(Cl)cc2)CC1 do in these assays?
miR-21 reporter: 8%; Rango dissoc inh: 1%; Rango-impB inh: -0.7%

What do the screens show for `Cc1ccc(/C=N/NC(=O)c2cc3c(ccc4ccccc43)o2)o1`?
miR-21 reporter: -12%; Rango dissoc inh: 11%; Rango-impB inh: -0.2%

Results for CCN(Cc1ccncc1)C(=O)c1ccccc1NS(=O)(=O)c1ccc(F)cc1 ?
miR-21 reporter: 3%; Rango dissoc inh: 23%; GLA inh pH 4.5: 6; Rango-impB inh: 0.3%

What do the screens show for `Cc1ccc(/C=C2\NC(=S)NC2=O)cc1[N+](=O)[O-]`?
miR-21 reporter: -2%; Rango dissoc inh: -2%; GLA inh pH 4.5: -3; Rango-impB inh: -2.3%

What do the screens show for `CCc1ccc(NC(=S)N(Cc2cccc(Br)c2)CC2CCC(C(=O)O)CC2)cc1` (stereo not drawn)?
miR-21 reporter: -12%; Rango dissoc inh: 5%; GLA inh pH 4.5: -2[21.1 µM]; Rango-impB inh: -1.6%

How did C/C(CC(=O)N1CCN(C=O)CC1)=N\NC(=O)c1cc2ccccc2cc1O do in these assays?
miR-21 reporter: 28%; Rango dissoc inh: inconclusive; GLA inh pH 4.5: -5; Rango-impB inh: inconclusive

Results for CC1Cc2ccccc2N1C(=O)CSc1nc(N)cc(=O)[nH]1 (stereo not drawn) ?
miR-21 reporter: -1%; GLA inh pH 4.5: 8

What do the screens show for `Cc1cc(C)n(CC(=O)N2CCc3ccccc32)c(=O)c1C#N`?
miR-21 reporter: 0%; Rango dissoc inh: 2%; Rango-impB inh: 0.9%

How did O=C(O)CSc1cc(C(=O)c2ccccc2O)cn2c(=O)c3c4c(sc3nc12)CCCC4 do in these assays?
miR-21 reporter: -6%; Rango dissoc inh: inconclusive; GLA inh pH 4.5: 2; Rango-impB inh: inconclusive

Results for O=C1CC(/C=C/c2ccccn2)=Nc2ccccc2N1 ?
miR-21 reporter: -7%; Rango dissoc inh: -12%; GLA inh pH 4.5: -10; Rango-impB inh: inconclusive

What do the screens show for `CCCOC(=O)c1ccc(NC(=O)CCOc2ccccc2)cc1`?
miR-21 reporter: -2%; Rango dissoc inh: 6%; GLA inh pH 4.5: 1; Rango-impB inh: -0.1%

What do the screens show for `CCC(C)c1ccc(S(=O)(=O)N2CCN(C(=O)c3ccc(Cl)c(S(=O)(=O)N4CCOCC4)c3)CC2)cc1` (stereo not drawn)?
Rango dissoc inh: -7%; Rango-impB inh: -2.6%

Results for CCOc1ccccc1NC(=O)C(OC(=O)c1ccccc1O)c1ccccc1 (stereo not drawn) ?
miR-21 reporter: -5%; Rango dissoc inh: -2%; GLA inh pH 4.5: -11; Rango-impB inh: 2.0%

How did CCOP(=O)(NC12CC3CC(CC(C3)C1)C2)NC12CC3CC(CC(C3)C1)C2 do in these assays?
miR-21 reporter: -1%; Rango dissoc inh: -9%; Rango-impB inh: -0.2%

Results for O=C(CCN1CCCCCC1)c1ccccc1 ?
miR-21 reporter: -1%; Rango dissoc inh: 9%; GLA inh pH 4.5: -1; Rango-impB inh: -0.7%

Results for O=C(NCC(c1ccco1)N1CCOCC1)c1ccc(Cl)cc1 (stereo not drawn) ?
Rango dissoc inh: -16%; Rango-impB inh: 0.7%

What do the screens show for `CC(C)[C@@H]1CC[C@@H](C)c2c(-c3ccccc3)n[nH]c21`?
miR-21 reporter: 0%; Rango dissoc inh: -4%; GLA inh pH 4.5: 2; Rango-impB inh: 0.2%

How did CCCOc1ccc(-c2nn(-c3ccccc3)cc2/C=C2\SC(=S)N(C3CCS(=O)(=O)C3)C2=O)cc1 (stereo not drawn) do in these assays?
miR-21 reporter: -6%; Rango dissoc inh: -7%; GLA inh pH 4.5: -3; Rango-impB inh: 1.6%

Results for CC1CC(=O)N(CC(=O)Nc2cccc(F)c2)c2ccccc2S1(=O)=O (stereo not drawn) ?
miR-21 reporter: -1%; Rango dissoc inh: -7%; Rango-impB inh: 0.5%

What do the screens show for `O=C(/C=C/c1cc([N+](=O)[O-])ccc1OC(F)F)Nc1cccc([N+](=O)[O-])c1`?
miR-21 reporter: -6%; Rango dissoc inh: -2%; GLA inh pH 4.5: 5; Rango-impB inh: 6.7%

Results for Cc1cnc2c(C(=O)O)cnn2c1 ?
miR-21 reporter: -1%; Rango dissoc inh: -7%; GLA inh pH 4.5: -8; Rango-impB inh: 6.3%

Results for CCOc1ccc(-c2nn[nH]n2)cc1 ?
miR-21 reporter: -14%; Rango dissoc inh: -7%; GLA inh pH 4.5: 3; Rango-impB inh: -0.4%

Results for CC(C)CCN(C(=O)c1cc(=O)[nH]c2ccccc12)c1c(N)n(Cc2ccccc2)c(=O)[nH]c1=O ?
Rango dissoc inh: 1%; Rango-impB inh: -0.6%

What do the screens show for `COC(=O)C(C)Oc1cc(OC(C)C(=O)OC)c2c(C)c(Cl)c(=O)oc2c1` (stereo not drawn)?
miR-21 reporter: 2%; Rango dissoc inh: 0%; GLA inh pH 4.5: -1; Rango-impB inh: -1.6%

How did COc1cc(C(=O)N/N=C/c2cn(Cc3ccccc3)c3ccccc23)ccc1O do in these assays?
miR-21 reporter: -8%; Rango dissoc inh: 6%; Rango-impB inh: 1.5%

Results for Cc1ccccc1Cn1nc(C)c(NC(=O)C2(C)CC2(Cl)Cl)c1C (stereo not drawn) ?
miR-21 reporter: -3%; Rango dissoc inh: 0%; GLA inh pH 4.5: 7; Rango-impB inh: 0.0%

Results for Cc1nc(Nc2ccc(Cl)cc2Cl)sc1C(=O)Nc1ccccc1 ?
miR-21 reporter: -11%; Rango dissoc inh: 4%; GLA inh pH 4.5: -4; Rango-impB inh: -0.9%

What do the screens show for `Cc1ccc2oc3c(c(=O)c2c1)C(c1cccc(O)c1)N(c1ccccn1)C3=O` (stereo not drawn)?
miR-21 reporter: -2%; Rango dissoc inh: -1%; GLA inh pH 4.5: 8; Rango-impB inh: 2.0%

What do the screens show for `COCCn1nnnc1C(c1cc2cc(C)ccc2[nH]c1=O)N1CCc2ccccc21` (stereo not drawn)?
miR-21 reporter: -1%; Rango dissoc inh: -28%; GLA inh pH 4.5: 0; Rango-impB inh: inconclusive

How did CC(C)C(=O)N1CCN(c2ccc(NC(=O)c3ccc4c(c3)OCCO4)cc2)CC1 do in these assays?
miR-21 reporter: 5%; Rango dissoc inh: 18%; GLA inh pH 4.5: 1; Rango-impB inh: -1.1%

Results for Cc1ccc(C(=O)N2C(=O)C(c3ccccc3)Oc3ccccc32)cc1 (stereo not drawn) ?
miR-21 reporter: 22%; Rango dissoc inh: 6%; GLA inh pH 4.5: -5; Rango-impB inh: -0.9%

What do the screens show for `Cc1ccc(C)c(CN2C(=O)c3ccccc3S(=O)c3ccc(C(=O)N4CCN(c5ccccn5)CC4)cc32)c1` (stereo not drawn)?
miR-21 reporter: inconclusive; Rango dissoc inh: 7%; GLA inh pH 4.5: inconclusive; Rango-impB inh: inconclusive

How did CCc1ccccc1NC(=O)CC(NCc1ccccc1)C(=O)O (stereo not drawn) do in these assays?
miR-21 reporter: 1%; Rango dissoc inh: -2%; Rango-impB inh: -3.6%

What do the screens show for `Cc1ccccc1NS(=O)(=O)c1cc(C(=O)N2CCCC2)ccc1Cl`?
miR-21 reporter: -5%; Rango dissoc inh: -12%; Rango-impB inh: -0.1%

How did O=C(O)c1ccc(-n2cccc2/C=C2/NC(=O)N(c3ccccc3)C2=O)cc1 do in these assays?
miR-21 reporter: -10%; Rango dissoc inh: -7%; GLA inh pH 4.5: -13; Rango-impB inh: -0.2%

How did COc1cc(F)ccc1S(=O)(=O)n1c(C)nc2ccccc21 do in these assays?
miR-21 reporter: -15%; Rango dissoc inh: -15%; Rango-impB inh: 5.4%

Results for COc1cc(Cn2c(-c3nonc3N)nc3ccccc32)ccc1C ?
miR-21 reporter: 16%; Rango dissoc inh: -3%; GLA inh pH 4.5: 5; Rango-impB inh: -0.7%

Results for CCN=C(NCC)SC1CC(=O)N(CCc2ccccc2)C1=O (stereo not drawn) ?
Rango dissoc inh: 1%; Rango-impB inh: 0.7%

What do the screens show for `CCc1nc(SCc2ccc(Br)cc2)n[nH]1`?
miR-21 reporter: -59%; Rango dissoc inh: 9%; Rango-impB inh: -0.7%

Results for COCCn1c(-c2ccccc2F)n[nH]c1=S ?
miR-21 reporter: -3%; Rango dissoc inh: 2%; GLA inh pH 4.5: -15; Rango-impB inh: 1.1%

Results for O=C1NCCN(Cc2ccc(Cl)c(F)c2)C1CC(=O)N1CCCCO1 (stereo not drawn) ?
miR-21 reporter: -5%; Rango dissoc inh: 14%; GLA inh pH 4.5: -1; Rango-impB inh: -3.2%

What do the screens show for `O=C(CN1C(=O)CCC1=O)Nc1cccc2c1C(=O)NC2=O`?
miR-21 reporter: 1%; Rango dissoc inh: inconclusive; GLA inh pH 4.5: -1; Rango-impB inh: inconclusive

4 neighbouring compounds out of the list so far, quoted:
Results for CCN=C(NCC)SC1CC(=O)N(CCc2ccccc2)C1=O (stereo not drawn) ?
Rango dissoc inh: 1%; Rango-impB inh: 0.7%

What do the screens show for `CCc1nc(SCc2ccc(Br)cc2)n[nH]1`?
miR-21 reporter: -59%; Rango dissoc inh: 9%; Rango-impB inh: -0.7%

Results for COCCn1c(-c2ccccc2F)n[nH]c1=S ?
miR-21 reporter: -3%; Rango dissoc inh: 2%; GLA inh pH 4.5: -15; Rango-impB inh: 1.1%

Results for O=C1NCCN(Cc2ccc(Cl)c(F)c2)C1CC(=O)N1CCCCO1 (stereo not drawn) ?
miR-21 reporter: -5%; Rango dissoc inh: 14%; GLA inh pH 4.5: -1; Rango-impB inh: -3.2%

A portion of the library; rates above refer to the full screens.
